Screening results (PubChem BioAssay)
Menin MLL FP FL: qHTS Assay for Inhibitors Targeting the Menin-MLL Interaction in MLL Related Leukemias: Competition With Fluorescein Labeled MLL-derived Peptide. 290,000 tested, under 10 active. AID 1766, 2009. FP activity change, % at 61.4 µM. Fluorescence polarization, fluorescein-MLL peptide displacement from menin; inconclusive = falling polarisation curve, or a change in total fluorescence; inactive = total fluorescence flat and polarisation flat or rising; no compound was filed as active; the % refers to the polarisation; negative = inhibition;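 note: % of control where 0% means no effect; inhibitors lower the polarisation; unlabelled MLL peptide was the positive control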
TRPML1 inh: qHTS for Inhibitors of the Human Mucolipin Transient Receptor Potential 1 (TRPML1); 390,000 tested, 0.02% active; TRPML1-inducible cells, Ca2+ dye fluorescence, FDSS; stronger effect = lower value; inhibition of EC80 agonist-evoked calcium signal; activity change, negative = inhibition, % (concentration not given with the values); AID 624415, 2012; in the data active means activity change below about -50%; inconclusive means about -30% to -50%; inactive means above about -30%;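 note: stimulus is agonist 54-4 at its EC80 concentration; % is set by controls: 0 for no effect and ±100 for the full control effect; compound concentration not given in the record; the text of the record puts the active cut at -80%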
Target sequence (Q9GZU1 whole entry, looked up): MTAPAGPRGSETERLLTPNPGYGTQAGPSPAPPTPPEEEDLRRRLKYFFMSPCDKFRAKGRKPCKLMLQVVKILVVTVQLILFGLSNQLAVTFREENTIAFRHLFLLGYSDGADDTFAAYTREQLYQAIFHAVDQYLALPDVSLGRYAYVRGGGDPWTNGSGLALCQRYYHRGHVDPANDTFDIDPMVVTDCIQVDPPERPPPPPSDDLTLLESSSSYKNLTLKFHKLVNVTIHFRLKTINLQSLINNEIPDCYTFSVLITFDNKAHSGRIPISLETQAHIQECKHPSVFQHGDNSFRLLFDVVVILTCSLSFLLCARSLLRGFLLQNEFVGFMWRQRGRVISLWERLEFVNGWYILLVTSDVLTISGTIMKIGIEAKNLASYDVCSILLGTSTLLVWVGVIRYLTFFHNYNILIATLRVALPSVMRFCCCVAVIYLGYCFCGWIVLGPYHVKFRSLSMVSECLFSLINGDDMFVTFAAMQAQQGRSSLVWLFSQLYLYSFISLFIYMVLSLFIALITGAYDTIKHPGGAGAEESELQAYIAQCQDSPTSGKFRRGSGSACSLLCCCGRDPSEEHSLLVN
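Calcium fluorescence in TRPML1-DL cells induced overnight with Tet: a 110 s read after compound pin addition, then a 110 s antagonist read after challenge with 54-4 at 4 uM final (EC80).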
TRPML1 agonist: qHTS for Agonists of the Human Mucolipin Transient Receptor Potential 1 (TRPML1); Mucolipin-1 (Homo sapiens), Q9GZU1; 410,000 tested, 0.12% active; TRPML1-expressing cells, Ca2+ dye fluorescence, FDSS; host cell line not named in the record; reference of the full effect not given here; activation, % (concentration not given with the values); AID 624414, 2012; in the data active = activation above about 50%; inconclusive = about 30% to 50%; inactive = below about 30%; note: 0% is about no effect; the text of the record puts the active cut at 80%
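Tetracycline-induced TRPML1-DL cells are seeded and incubated overnight before loading with a no-wash Ca2+ dye and quencher. Agonist activity is taken from the 110 s fluorescence read following compound pin-transfer on an FDSS, before EC80 54-4 challenge.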
gsp antagonist: qHTS for Antagonists of gsp, the Etiologic Mutation Responsible for Fibrous Dysplasia/McCune-Albright Syndrome: qHTS; Potency, µM (doses to about 76.9 µM), inactives show at the top dose activity change, negative = inhibition, actives largely listed as inhibitors; gsp-mutant cells, cAMP HTRF, 30 min; control for the full effect not named in the record; 340,000 tested, 0.4% active; active = falling curve of any shape with a large fitted effect; inconclusive = falling curve, mostly with a smaller effect; inactive = flat or rising curve; cell line not stated here;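 note: intracellular cAMP measured with PDE inhibitor Ro 20-1724 present during compound exposure; potency is the fitted concentration of half-maximal effect; % is set by controls: 0 for no effect and ±100 for the full control effect; nearly all actives have a fitted effect of over 65% in size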
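HTRF cAMP measurement after 30 min RT detection following 30 min, 37C compound treatment alongside […] (added as 300 uM solution) in G418-selected cells seeded at 2000/well and grown 16–24 h.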
gsp ag: qHTS for Agonist of gsp, the Etiologic Mutation Responsible for Fibrous Dysplasia/McCune-Albright Syndrome: qHTS | Potency, µM (doses to about 76.9 µM), for the others: top-dose activation (cAMP increase), usual class: activators | 340,000 tested, 0.13% active | gsp mutant cells, cAMP HTRF, 30 min; control for the full effect not named in the record; active = well fitted activation curve with a large enough effect; inconclusive = small, poorly fitted or top-dose-only effect, or another doubt; inactive = no such curve, though single readings can be large or run the other way; cell line not stated here;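 note: phosphodiesterase inhibitor Ro 20-1724 added with compounds to block cAMP breakdown; potency is the fitted concentration of half-maximal effect; nearly all actives have a fitted effect of over 60% in size; about a fifth of the inactives were tested at one dose only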
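Cells in DMEM/10% FBS with G418 were pretreated with compounds in DMSO plus […] (300 uM stock) for 30 min at 37C. cAMP was measured by HTRF (cAMP-d2 plus anti-cAMP antibody-K) after 30 min at room temperature.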
ClpP mod: qHTS Assay for Activators of ClpP; purified B. subtilis ClpP, FRET peptide cleavage, 20 min; Potency, µM (titrated, usually from 57.5 µM), for inactives: at the highest dose activity change, negative = active; 340,000 tested, 1.9% active; active = well fitted falling curve with a large enough effect; inconclusive = small, poorly fitted or top-dose-only effect; inactive = no such curve, though single readings can be large or run the other way; note: potency is the fitted concentration of half-maximal effect; the source files actives as falling curves though it sought activators and does not explain the sign; nearly all actives have a fitted effect of over 65% in size; many hits overshoot -100%
Target sequence (P80244 whole entry, looked up): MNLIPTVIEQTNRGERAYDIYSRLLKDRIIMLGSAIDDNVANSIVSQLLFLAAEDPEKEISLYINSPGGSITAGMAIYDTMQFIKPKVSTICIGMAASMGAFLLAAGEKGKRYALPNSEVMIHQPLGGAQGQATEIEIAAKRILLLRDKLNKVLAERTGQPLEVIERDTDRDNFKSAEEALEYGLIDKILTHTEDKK
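FRET quenching reversal measured ClpP activation: 10 microg/mL B. subtilis ClpP at pH 8 with the FRET-FV decapeptide, read at 430 nm after 320 nm excitation. The 20-min minus 0-min signal was scaled between DMSO/no-enzyme wells and ADEP (5.8 microM final).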
* marks the source's active call; other numbers are inactive results; ? = inconclusive; . = not tested or not shown; & = joins results of further samples; [ ] = another dose, or the depositor's remark.

SMILES,Menin MLL FP FL,TRPML1 inh,TRPML1 agonist,gsp antagonist,gsp ag,ClpP mod
O=C(NC(=S)N1CCN(c2ccc(Cl)cc2[N+](=O)[O-])CC1)c1ccco1,-10,-2,0.1,-7%,13%[15.4 µM],0.8%
COC(=O)COc1ccc(S(=O)(=O)Nc2ccc3c(c2)OCCO3)cc1Cl,-4.3,2,0.6,-28%,31%,-1.2%
COc1ccc(CC(=O)O/N=C(\N)Cc2cccc3ccccc23)cc1OC,3.3,37,5.1,8%,7%,-2.9%
CCc1nccn1S(=O)(=O)c1cc(Br)ccc1Br,.,37,1.4,.,.,0.5%
NS(=O)(=O)c1ccc(NC(=O)CSc2nnc(C3CC3)n2C2CC2)cc1,.,7,-0.7,16%,?,0.2%
O=C1COc2ccc(S(=O)(=O)CCC(=O)NC3CCCCC3)cc2N1,.,-2,-0.7,9%,34%,-0.8%
COc1ccccc1NC(=O)C(C)N1C(=O)C2CCCCC2C1=O (configuration not stated),.,-12,-0.6,10%,8%,0.1%
O=C(O)c1cn(CCOc2ccccc2Cl)c2ccccc12,-4.5,-10,-0.2,12%,-23%,.
Nc1ncnc2c1ncn2[C@@H]1O[C@H](CNCc2ccc(-n3cccn3)cc2)[C@@H](O)[C@H]1O,.,-2,1.0,12%,.,-0.7%
Cc1cc(C)c(C(=O)c2ccccc2)c(C)c1,.,25,2.6,-11%,2%,.
O=C(Cc1ccc2c(c1)OCCO2)N1CCN(S(=O)(=O)c2cccc(C(F)(F)F)c2)CC1,-0.1,-7,1.1,5%,4%,-5.0%
O=C(Nc1ccccc1Br)c1ccc2nccnc2c1,0.8,-6,1.5,2%,0%,.
C=CCN1c2ccccc2[C@]23C[C@@H](C(=O)OC)N(C(=O)NCCC)C2=NC(C(=O)OC)=C(C(=O)OC)[C@H]13,-0.5,30,0.7,-7%,.,-1.4%
COc1ccccc1CN(Cc1ccco1)S(=O)(=O)c1ccc(-n2cnnn2)c(OC)c1,4.5,3,1.6,-11%,6%,0.6%
CN(C)/C(=N\S(=O)(=O)c1ccc(Br)cc1)c1ccccc1,-0.9,11,-0.2,3%,-7%,.
Cc1ccccc1OCC(=O)Nc1ccccc1C(=O)N1CCCCC1,.,-6,-0.8,?,9%[15.4 µM],-2.4%
CC(=O)N1N=C(c2ccc(C(C)(C)C)cc2)OC1(C)C,1.4,-10,0.2,-1%,3%,32µM*
Clc1ccc(-c2nnc(C3CCCCC3)o2)cc1,3.4,-6,-0.3,3%,-5%,1.9%
Cn1c(SCC(=O)N/N=C/c2cccnc2)nnc1-c1ccccc1,2.3,1,-0.4,-11%,-4%[15.4 µM],0.0%
CCOc1ccc2[nH]c(=O)c(CN(Cc3ccco3)C(=O)c3cccc(F)c3)cc2c1,3.9,-4,-0.5,-1%,-60%[inhibitor],32µM*
Cc1ccc(C(C(=O)NCc2ccc(F)cc2)N(Cc2ccco2)C(=O)c2snc(C(N)=O)c2N)o1 (configuration not stated),1.3,7,3.0,-16%,-1%,.
CC(C)n1cnc2c(Nc3ccc(F)c(Cl)c3)nc(NCCO)nc21,-15,2,-0.5,-6%,.,-1.7%
COc1ccccc1NC(=S)NC(=O)CC(C)C,1.7,15,1.2,1%[15.4 µM],-7%,-0.6%
CCOC(=O)c1cnn(-c2ccc([N+](=O)[O-])cc2)c1N,0.9,25,-1.0,-3%,-11%,-1.2%
CCS(=O)(=O)N1CCCC(C(=O)NCCCOC)C1 (configuration not stated),2.4,-8,-0.8,2%,-2%,0.4%
COc1ccccc1CCc1nnc(CCC(=O)NCC(C)Oc2cccnc2)o1 (configuration not stated),5.3,-15,-0.1,-5%,12%,-1.1%
O=C(CCCc1nc(-c2ccccc2)no1)Nc1cccnc1,3.3,-5,-0.9,-23%,0%,-4.9%
O=C(c1ccc([N+](=O)[O-])cc1)N1CCN(c2ncc(Br)cn2)CC1,-0.2,-3,1.1,1%,1%,-4.2%
CCC(=O)N1CCc2cc(S(=O)(=O)CCC(=O)NCc3ccccc3Cl)ccc21,.,25,-0.1,.,.,2.5%
COc1ccc(S(=O)(=O)NCCC(=O)NC(C)c2ccccc2)cc1 (configuration not stated),0.3,-7,0.1,8%,-9%,-0.8%
COc1ccc(CCNC(=O)CN(c2ccc(OC)cc2)S(C)(=O)=O)cc1,6.7,0,-0.2,-1%,18%[15.4 µM],.
CC(C)(C)CC(=O)NCC(c1ccc2c(c1)OCO2)N1CCN(c2ccccc2)CC1 (configuration not stated),.,12,-0.3,.,.,0.2%
Cc1cccc(C(=O)N2CCc3cc(CNC(=O)c4ccco4)ccc32)c1,.,3,0.7,.,.,-14%
O=C(C1CCC1)N1CCc2cc(S(=O)(=O)NCc3cccnc3)ccc21,1.0,20,3.5,-25%,-1%,-2.5%
COc1ccccc1NS(=O)(=O)c1ccc(C(=O)NCc2ccc(S(N)(=O)=O)cc2)cc1,.,89,5.4,7%,18%,.
CCOc1ccc(CNCCc2ccc(S(N)(=O)=O)cc2)cc1,-0.3,-10,-0.5,14%,-30%[15.4 µM],.
CCN(CC)S(=O)(=O)c1cc(NC(=O)CSc2nnc(N)s2)ccc1C,.,-3,-0.7,-9%,-20%,-2.5%
Cc1c(NC(=O)c2cc(-c3cccc(Cl)c3)on2)c(=O)n(-c2ccccc2)n1C,-3.2,5&5,2.1&-1.1,-3%,-11%,0.9%
C#CCN(C[C@@H]1[C@@H](OC(=O)NCc2ccccc2)[C@@H](OC(=O)NCc2ccccc2)Cn2c(=O)n(CCCCCC)c(=O)n21)S(=O)(=O)c1ccc(C)cc1,.,-6,0.2,.,?,-2.6%
O=C(NCCc1c[nH]c2ccccc12)c1ccco1,-1.3,8,-0.4,0%,2%,0.9%
C=CCOC(=O)C1=C(C)NC(SC)=C(C#N)C1c1cccs1 (configuration not stated),4.9,2,1.3,0%,-41%[inhibitor],-6.2%
S=C(NCCCc1ccccc1)Nc1ccccc1Cl,5.3,26,0.4,-11%,3%,-11%
O=C(O)C1CCCN1C(=O)c1cccs1 (configuration not stated),2.9,4,-1.0,2%,-3%,0.4%
COc1ccc2c(c1)CCc1c(C(=O)NCCc3ccc(OC)c(OC)c3)noc1-2,0.2,-5,2.7,-11%,-2%,-3.1%
O=[N+]([O-])c1ccc(N2CCN(Cc3ccccc3)CC2)c2c1no[n+]2[O-],.,1,2.4,.,-22%,-1.8%
CCOCCCNC(=O)c1cn(CC)c2ccc(S(=O)(=O)N3CCCC3)cc2c1=O,.,16,0.5,0%,-10%,-0.2%
O=C(COC(=O)c1ccc(Br)cc1)NCc1ccc(F)cc1,1.4,-3,-0.6,12%,26%,.
CCOC(=O)c1sc(NC(=O)c2nc3ncccn3n2)c(C(=O)OC(C)C)c1C,.,4,-0.3,.,.,-11%
Cc1nc(Cl)sc1C(=O)Nc1ccc(F)cc1,.,15,-0.5,0%,-30%,.
CCC(C)n1c(SCC(=O)NCCc2ccc(S(N)(=O)=O)cc2)nc2ccsc2c1=O (configuration not stated),5.4,11,2.5,4%,-4%,0.0%

Single records, from the list above:
O=[N+]([O-])c1ccc(N2CCN(Cc3ccccc3)CC2)c2c1no[n+]2[O-] as listed: Menin MLL FP FL: .; TRPML1 inh: 1; TRPML1 agonist: 2.4; gsp antagonist: .; gsp ag: -22%; ClpP mod: -1.8%
O=C(c1ccc([N+](=O)[O-])cc1)N1CCN(c2ncc(Br)cn2)CC1 as listed: Menin MLL FP FL: -0.2; TRPML1 inh: -3; TRPML1 agonist: 1.1; gsp antagonist: 1%; gsp ag: 1%; ClpP mod: -4.2%

(continued)
SMILES,Menin MLL FP FL,TRPML1 inh,TRPML1 agonist,gsp antagonist,gsp ag,ClpP mod
CCn1c(C(=O)N2CCCC(C(=O)N3CCN(c4ccccc4)CC3)C2)cc2sccc21 (configuration not stated),.,?,61*,.,.,-0.6%
COc1ccc(-c2cc(C(=O)Nc3c(C)nn(Cc4ccc(F)cc4)c3C)no2)cc1OC,.,-24,-0.2,.,.,-22%
CC(C)c1ccc(NC(=O)C2C3C=CC4(O3)C2C(=O)N(CCN2CCOCC2)C4C(=O)NC2CCCCC2)cc1 (configuration not stated),0.7,-2,0.1,5%,1%[15.4 µM],.
CC1CC(C)CN(C(=O)CCn2c(=O)oc3ccccc32)C1 (configuration not stated),.,5,-0.7,12%,-27%,-1.0%
CC(NC(=O)CCC(=O)Nc1ccccc1O)c1ccccc1 (configuration not stated),.,26,0.4,10%,0%[15.4 µM],.
COc1cccc(N2CC(C(=O)Nc3nnc(SCC(=O)NCC4CCCO4)s3)CC2=O)c1 (configuration not stated),.,-9,0.0,8%,-29%,-1.3%
CCNC(=O)NCCNC(=O)c1cc(OCC(F)(F)F)ccc1OCC(F)(F)F,-2.5,7,-0.5,5%,-8%,.
C#CCOCCOCCOCCNc1nc(N2CCOCC2)nc(N2CCN(C(=O)[C@H](CC(N)=O)n3cc(C(N)[C@@H](C)CC)nn3)CC2)n1 (some centres not stated),.,10,-0.5,9%,-1%,-1.7%

Ordered by molecular weight (ascending): some entries from above
SMILES,Menin MLL FP FL,TRPML1 inh,TRPML1 agonist,gsp antagonist,gsp ag,ClpP mod
CC(NC(=O)CCC(=O)Nc1ccccc1O)c1ccccc1 (configuration not stated),.,26,0.4,10%,0%[15.4 µM],.
CC(C)c1ccc(NC(=O)C2C3C=CC4(O3)C2C(=O)N(CCN2CCOCC2)C4C(=O)NC2CCCCC2)cc1 (configuration not stated),0.7,-2,0.1,5%,1%[15.4 µM],.
C#CCOCCOCCOCCNc1nc(N2CCOCC2)nc(N2CCN(C(=O)[C@H](CC(N)=O)n3cc(C(N)[C@@H](C)CC)nn3)CC2)n1 (some centres not stated),.,10,-0.5,9%,-1%,-1.7%
